PrP UTR inh: inhibition of PrP 5' UTR reporter expression; 340,000 compounds, 0.35% hits; inhibition, % (test concentration not listed); cell-based PrP 5' UTR mRNA reporter, plate reader;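 active means every replicate at 50% or more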;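 further: 0 = median of the neutral control wells; tested in H4 reporter cells; numbers are from one replicate; inactives centre near -14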
Mtb hypoxia rep: PubChem AID 1159583; M. tuberculosis hypoxia-regulated fluorescent reporter, fluorescence; 300,000 compounds, 0.1% hits; fluorescence inhibition, % (no concentration beside the values);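 active means 35 to 45% if threefold the growth effect, above 45% if 1.5-fold the growth effect; inactive means the rest, general growth blockers included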;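 further: wells of about 50 µL received 100 nL stock; 0% = vehicle wells and 100% = reference inhibitor wells; whole bacteria with a GFP reporter of the hypoxia response; strong numbers were not always called active; many hits fall short of the cut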
BJeLR lethal: MLPCN primary cell-based screen for lethality selective to Ras in HRASV12 cells. inhibition, % (test concentration not listed). AID 1554, 2009. 300,000 compounds, 0.17% hits. BJeLR (HRASV12) viability, CellTiter-Glo ATP luminescence, 48 h; reference of the scale not given here;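 active means replicate mean above 50%; inconclusive means above 50% but judged a plate artefact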;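 further: 50 nL library stock added to about 25 µL; numbers are from one replicate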
Sa ugtP lethal: growth inhibition of ugtP-null S. aureus, primary screen, RN4220 ugtP deletion, OD600 | 16 h; some inactives read as strong as hits | growth inhibition, % (concentration not given with the values) | 330,000 compounds, 0.54% hits | AID 1259309, 2017;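 active means z-score under -3 and OD600 up to 0.15 on both plates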;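 further: plate controls were untreated wells for no effect and antibiotic for full effect; wells of about 80 µL received 100 nL stock; the first replicate is given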
Sa RN4220 lethal: growth inhibition of S. aureus RN4220, primary screen, OD600; inhibition, % (test concentration not listed); 16 h; 330,000 compounds, 0.33% hits; AID 1259311, 2017;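 active means z-score of -3 or lower and OD600 up to 0.18 on both plates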;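 further: plate controls were untreated cells for no effect and reference antibiotic for full effect; stock transfer was 100 nL into about 80 µL; one replicate is shown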
Autofluor counter: compound fluorescence in toxin protease inhibitor counterscreen; fluorescence intensity (concentration not given with the values); compound autofluorescence counterscreen, microsphere flow cytometry; active compounds read high; 360,000 compounds, 3.1% hits;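 active means at least 3 SD above the mean of all compounds, about 16000 in these data; inconclusive means too few beads counted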;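 further: 100 nL of 1 mM stock went into each well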
Mtb hypoxia rep growth: recorded beside Mtb hypoxia rep, whose call it bears; growth inhibition, %; measured here: M. tuberculosis growth (absorbance);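 0% = vehicle and 100% = reference antibiotic; read after six days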
The depositor's hits bear a star; u = inconclusive; x = no result given.

mol,Sa ugtP lethal,Mtb hypoxia rep growth,Sa RN4220 lethal,Autofluor counter,PrP UTR inh,Mtb hypoxia rep,BJeLR lethal
Cc1ccc(C#CC[N+]2(C)CCCCC2)cc1,7,9,2.4,x,x,7,-1
O=C(Cc1ccc(Br)cc1)N1CCc2ccccc2C1,7,13,2.6,3762,-33,17,-3
COc1ccc(-c2nc(CS(=O)CC(=O)NC3CCCC(C)C3C)c(C)o2)cc1OC (stereo not given),6,-2,3.7,5534,-14,3,3
O=C(NNC(=S)Nc1ccccc1)c1cccc(S(=O)(=O)N2CCOCC2)c1,4,-4,5.5,4022,-3,3,-2
CC(C)c1ccc(NC(=O)CCCN2C(=S)NC(C)(C)CC2C)cc1 (stereo not given),2,8,-6.2,3407,-10,11,-5
N#Cc1cccc(NC(=O)CN2CCN(Cc3ccccc3)CC2)c1,5,6,-0.6,5237,-18,-5,-10
FC(F)(F)Oc1ccccc1-c1nnc(-c2cccc(C(F)(F)F)c2)o1,15,2,0.0,3670,-15,9,-12
Cc1ccc(NC(=O)c2ccccc2CCc2ccccc2)c(C)c1,13,-7,5.7,7277,-33,-1,-10
CC(NC(=S)Nc1ccc(Cl)cc1Cl)C(c1cccs1)N1CCCC1 (stereo not given),-1,4,1.0,2508,-5,4,10
Cc1nn(C)c(Sc2ccccn2)c1[N+](=O)[O-],1,-5,0.3,4091,-10,2,-7
CCOc1ccccc1/C=C\c1nc(O)c([N+](=O)[O-])c(=O)[nH]1,6,9,2.1,3810,-9,5,3
Cc1cc(NN=Cc2ccc3c(c2)OCO3)nc2ccccc12,-2,7,2.1,x,x,-15,x
CCOc1ccc(NC(=O)CSc2nnc(-c3ccccc3Cl)n2Cc2ccco2)cc1,2,x,-5.5,2533,-10,x,x
Cc1c(NC(=O)CCc2ccccc2)cccc1[N+](=O)[O-],-7,0,-3.0,4805,-20,-7,2
Cc1ccc(NS(=O)(=O)c2ccc(NC(=O)c3ccc(Br)o3)cc2)c(C)c1,-19,8,0.4,4231,-9,0,2
COc1ccc(Cn2c(=O)[nH]c3cc(C(=O)N4CCN(Cc5ccccc5)CC4)ccc3c2=O)cc1,9,9,1.3,4749,-13,3,11
COc1ccccc1-n1c(SCC(=O)NCc2ccc3c(c2)OCO3)nc2cc([N+](=O)[O-])ccc21,-6,-6,-1.7,2619,-15,-5,-1
O=C1NC(=S)SC1=Cc1ccc(F)cc1,92*,8,90*,3594,-18,2,x
O=C(CCS(=O)(=O)c1cccc2nonc12)N1CCOCC1,0,3,1.2,4407,0,0,-19
COc1cccc(/C=C/C(=O)OCC(=O)Nc2nnc(-c3ccccc3)o2)c1,-8,0,5.8,7003,-7,5,-9
Cc1nnc(C)n1/N=C/c1c(O)ccc2ccccc12,x,x,x,3831,-9,x,-5
O=S(=O)(Nc1nc2ccc(S(=O)(=O)N3CCCCC3)cc2s1)c1ccccc1,-4,10,3.9,11023,10,6,0
COc1ccc2ccccc2c1/C=N/Nc1ccc(Cl)c(C(=O)O)c1,x,x,x,4076,-30,x,-17
CC1CCN(C(=S)c2ccc(O)cc2)CC1,0,0,-1.6,22756*,-19,4,1
C/C(C=NNC(=O)c1cccc(F)c1)=C\c1ccccc1,3,1,-0.7,x,x,-2,x
COc1ccccc1N1CCN(C(=O)c2ccc3c(c2)CCN3S(=O)(=O)c2ccccc2)CC1,6,-7,4.8,5963,-2,4,-8
CCOC(=O)c1[nH]c2ccccc2c1NC(=O)c1ccc(S(=O)(=O)N2CCCCC2)cc1,17,8,19,4163,-10,5,-3
C/C(Cc1ccccc1)=N\NC(=O)c1cc(C(C)(C)C)[nH]n1,x,x,x,4715,-25,x,-22
Oc1cc2ccccc2cc1-c1n[nH]c(=S)n1Cc1ccco1,-6,9,3.9,4414,-36,-2,2
S=C(NC1CCCCC1)N1CCc2[nH]c3ccccc3c2C1,10,9,4.6,4439,-13,7,-11

Copied from above, three compounds:
mol,Sa ugtP lethal,Mtb hypoxia rep growth,Sa RN4220 lethal,Autofluor counter,PrP UTR inh,Mtb hypoxia rep,BJeLR lethal
Cc1ccc(C#CC[N+]2(C)CCCCC2)cc1,7,9,2.4,x,x,7,-1
O=C(Cc1ccc(Br)cc1)N1CCc2ccccc2C1,7,13,2.6,3762,-33,17,-3
COc1ccc(-c2nc(CS(=O)CC(=O)NC3CCCC(C)C3C)c(C)o2)cc1OC (stereo not given),6,-2,3.7,5534,-14,3,3

(list continues)
mol,Sa ugtP lethal,Mtb hypoxia rep growth,Sa RN4220 lethal,Autofluor counter,PrP UTR inh,Mtb hypoxia rep,BJeLR lethal
COc1cccc(N2CCN(S(=O)(=O)c3ccc4nc(-c5ccccc5)[nH]c4c3)CC2)c1,-11,x,1.4,3612,-18,x,1
CC(C)Oc1ccccc1C(=O)NC(CO)C(=O)O (stereo not given),-1,-3,-2.4,5690,-16,6,-6
Cn1nccc1C(=O)Nc1cc(Cl)ccc1Cl,6,-5,4.9,u,x,7,3
Cn1c(Cn2nnc3ccccc32)nnc1SCC(=O)N1CCc2ccccc21,5,6,1.7,9941,-5,2,16
O=C(NCc1cccc(Cl)c1)C1CCC(=O)N(CCN2CCOCC2)C1 (stereo not given),7,-1,0.8,6044,-15,-1,-2
CCOc1ccccc1NC(=O)CSc1nc2cc(O)ccc2c(=O)n1-c1ccc(OC)c(OC)c1,2,6,-3.4,3817,-19,1,-6
O=C(NCC1CCCO1)c1nn2c(C(F)(F)F)cc(-c3ccc(Br)o3)nc2c1Br (stereo not given),5,-9,7.3,4369,-14,-5,1
CCOC(=O)c1c(C)[nH]c(C)c1C(=O)CSc1nnc(-c2ccncc2)n1C,3,6,6.5,3733,-21,5,-10
COc1ccc(C(C)=O)cc1COC(=O)c1cccc(N(C)C)c1,2,-10,2.2,3334,-9,11,-8
COc1ccc(C)cc1N(CC(=O)N1CCOCC1)S(C)(=O)=O,7,-1,4.7,4074,-7,9,-3
Oc1ccc2oc3c(c2c1C=NCc1ccncc1)CCCC3,-1,8,0.2,5054,11,1,-5
O=C(c1ccc(S(=O)(=O)N2CCOCC2)cc1)N1CCOCC1,2,5,2.7,3604,5,13,4
COc1cc2c(cc1OC)-c1c(OC)c(OC)cc3c1C(C2)N(C)CC3 (stereo not given),-3,x,1.3,5331,-6,x,-9
Cc1cc(C)nc(-n2nc(C)cc2NC(=O)c2ccc(F)cc2F)n1,-2,13,12,4388,-38,2,6
OC(CCCCN1CCCCC1)c1ccccc1 (stereo not given),-2,-2,-2.6,22737*,-13,-2,-3
CC(=O)c1c(OC(=O)c2cccc(Cl)c2)c2ccccc2n1C,x,x,x,3970,-17,x,2
O=C(C1CCCN1S(=O)(=O)c1cccc2cccnc12)N1CCc2ccccc2C1 (stereo not given),12,x,5.2,5691,-8,x,4
Cc1csc(Sc2ccc(S(=O)(=O)N3CCCC3)cn2)n1,4,-4,3.6,3953,-33,-3,3
CCOc1cc(S(=O)(=O)N(Cc2ccccc2)Cc2ccccc2)c(OCC)cc1-n1cnnn1,-21,6,11,10865,-19,8,-2
OC(COc1ccc(CN2CCSCC2)cc1)CN1CCCCC1 (stereo not given),7,8,4.0,4388,-38,11,4
Cc1ccc(C(=O)Nc2ccc3c(c2)C(=O)N(C)C3=O)c(C)c1,14,5,5.9,5885,-4,8,-14
COC(=O)CC1Oc2ccc(C)cc2NC1=O (stereo not given),1,x,-1.7,5795,-32,x,12
O=c1cc(-c2ccc([N+](=O)[O-])cc2)c2ccc(O)cc2o1,3,5,-3.4,3119,-16,13,9
COC(=O)c1ccc(CS(=O)(=O)c2ccc(C)cc2)o1,18,4,4.7,3209,-5,8,-6
CC(C)c1ccccc1NC(=O)COC(=O)Cc1ccsc1,12,-2,1.8,2085,-27,7,-11
O=C(O)CSCc1cn2cc(Cl)ccc2n1,5,8,8.7,3037,-29,14,2
CCOc1ccccc1NC(=O)CSc1nnc(Cn2c(=O)sc3ccccc32)n1C,1,x,-0.6,5198,-21,x,x
Cc1ccc(-c2cc(C(=O)OCC(=O)Nc3ncc(C(F)(F)F)cc3Cl)c3ccccc3n2)cc1,-6,4,5.7,2649,-13,9,-13
O=C(Cc1ccccc1)c1ccc2c(c1)OCCO2,7,6,13,3490,-60,12,3
CCOC(=O)C1C(=O)NC(SCC(=O)OC)=C(C#N)C1c1ccccc1OCC (stereo not given),-5,13,3.0,10891,-8,7,-5
Cc1ccc(C(=O)Nc2ccccc2N2CCOCC2)cc1S(=O)(=O)N1CCOCC1,-3,37,3.4,5943,-51,22,x
Cc1ccc(C(=O)NNC(=O)C2CCCN(c3ncccn3)C2)cc1 (stereo not given),0,4,6.5,8457,-24,9,16
COc1ccc(-c2c(C)cc3oc(=O)cc(-c4ccccc4)c3c2C)cc1OC,16,9,0.4,3435,0,4,x
C#CCOCCOCCOCCNc1nc(N2CCN(C(=O)[C@H](Cc3ccc(O)cc3)n3cc([C@@H](N)C(C)CC)nn3)CC2)nc(N2CCN(C(=O)[C@H](Cc3cc4ccccc4[nH]3)n3cc([C@@H](N)C(C)CC)nn3)CC2)n1 (stereo not given in full),x,x,x,3728,-18,x,-3
O=C(NCCc1ccc(Cl)cc1)c1ccc(CNc2c(N3CCOCC3)c(=O)c2=O)cc1,4,76*,9.4,4299,-26,42*,3
CC(C)(O)C#Cc1ccc(CN2CCN(Cc3ccccc3)C(CCO)C2)cc1 (stereo not given),2,3,2.5,4520,23,8,5
CC(C)(C)OC(=O)COc1ccc(/C=N/NC(=O)CN2CCCCC2)cc1,x,x,x,3547,-18,x,18
CN(C)c1ccc(CN(C(=O)/C=C/c2ccccc2Cl)C2CCS(=O)(=O)C2)cc1 (stereo not given),-3,-2,3.0,8369,x,-4,0
CC1(C)NC(=O)N(CC(=O)OCC(=O)Nc2sccc2C#N)C1=O,0,1,-0.3,5330,-49,3,-2
O=C1CC(c2ccccc2)=Nc2ccccc2N1Cc1ccccc1,-1,13,-4.5,2749,-3,-5,-9
COCC(=O)N(Cc1cc2cc(C)ccc2[nH]c1=O)c1ccc(C)c(C)c1,7,1,3.7,7073,-34,6,4
NS(=O)(=O)c1ccc(CCNC(=O)CN2CCN(Cc3cccc(C(F)(F)F)c3)CC2)cc1,10,1,0.1,5464,-14,15,-11
Cn1nnnc1SCC(=O)N1CCc2ccccc21,1,3,6.9,5026,-29,5,5
Cc1cc(C)cc(C(=O)NCC(=O)N2CCN(c3cccc(Cl)c3)CC2)c1,2,9,-6.0,3790,-12,10,-1
Cc1cc(C(=O)NN=C/C=C/c2ccccc2)c(C)o1,-12,19,0.3,x,x,7,x
Cc1cc(S(=O)(=O)N2CCN(c3ccccn3)CC2)c(C)cc1Cl,-2,2,-3.2,3152,-5,0,2
O=C(Cc1ccccc1)OCCN1CCCCC1,0,x,4.7,4763,-14,x,-7
NS(=O)(=O)c1ccc(CCNS(=O)(=O)c2ccccc2)cc1,0,-2,0.8,3471,-1,-20,-3
Cc1cnc(NC(=O)Nc2ccc(OCc3ccccc3)cc2)c(Br)c1,19,-3,32,3439,-23,-1,-11
COc1ccccc1-n1ccnc1SCC(=O)NC(C)(C)C,2,13,1.1,3989,-20,2,-9

Carrying on.
mol,Sa ugtP lethal,Mtb hypoxia rep growth,Sa RN4220 lethal,Autofluor counter,PrP UTR inh,Mtb hypoxia rep,BJeLR lethal
NC(=O)C1(N2CCCCC2)CCN(S(=O)(=O)c2cc(Cl)ccc2Cl)CC1,-2,-2,-8.9,5804,-9,5,0
CCN(CC)CCN(C(=O)c1ccc2c(c1)CCCC2)c1nc2ccc(F)cc2s1,12,14,-3.7,5337,-11,3,8
CSc1nc(N(C)C)nc(N(C)C#N)n1,2,2,2.0,4501,-12,13,1
Cc1cc(-c2ccccc2)n(-c2ccc(C(=O)NC(C)C)cc2)n1,3,5,3.1,9531,-22,2,3
COc1cccc(C=NN2C(=O)NC3(CCCCC3)C2=O)c1O,1,12,2.6,x,x,19,x

High-throughput results as filed in PubChem BioAssay.
